Vaccinia mCherry = vaccinia inhibition (mCherry reporter); Vaccinia virus mCherry reporter infection, fluorescence; about a quarter of the inactives have no number; Potency, µM (highest dose often 36.5 µM), without a hit: at the highest dose activity change, negative = inhibition, usual class: inhibitors; 310,000 tested, 0.63% active; active = well fitted inhibition curve with a large enough effect; inconclusive = small, poorly fitted or top-dose-only effect; inactive = no such curve, though single readings can be large or run the other way; tested in A549 cells; note: nearly all actives have a fitted effect of over 35% in size; inactives centre near -10
Vaccinia Venus = vaccinia inhibition (Venus reporter); AID 720580; Vaccinia virus Venus reporter expression, fluorescence; Potency, µM (doses to about 36.5 µM), for the others: top-dose activity change, negative = inhibition, most hits filed as inhibitors; 330,000 tested, 0.46% active; active means well fitted inhibition curve with a large enough effect; inconclusive means small, poorly fitted or top-dose-only effect; inactive means no such curve, though single readings can be large or run the other way; tested in A549 cells; note: nearly all actives have a fitted effect of over 30% in size; inactives centre near -10
Numbers without * were called inactive; i = inactive; ? = inconclusive; / = no result given; [ ] = dose if it differs, or a comment. % is set by controls: 0 for no effect and ±100 for the full control effect; potency is the fitted concentration of half-maximal effect.

Each structure is followed by: Vaccinia Venus	Vaccinia mCherry
> Cn1c(CCC(=O)OCC(=O)NCc2ccccc2Cl)nc(=O)c2ccccc21
 : -4.7%	i
> CN(C)S(=O)(=O)c1ccc(S(=O)(=O)N(CC(=O)Nc2ccccc2)Cc2ccco2)cc1
 : -0.4%	/
> CS(=O)(=O)Oc1ccc2c(c1)O/C(=C\C=C\c1ccccc1)C2=O
 : -0.8%	i
> C[C@@H]1CN([C@@H](C)CO)C(=O)CCCn2cc(nn2)CO[C@H]1CN(C)C(=O)Oc1cccc2ccccc12
 : -5.1%	0.7%
> CS(=O)(=O)c1ccc(-c2sc3ccccc3c2C(=O)NCCCN2CCOCC2)cc1
 : 0.0%	i
> O=c1cc(N2CCN(c3ccc(F)cc3)CC2)[nH]c(=O)n1-c1ccc(Br)cc1
 : -5.8%	-4.4%
> COc1ccc(CNC(=O)CCC(=O)N2CC3CCCN3c3ccccc32)cc1 (configuration not stated)
 : -14.6%	-21.6%
> CC(=O)NC(CC(=O)NCCCn1ccc2ccccc21)c1ccccc1 (configuration not stated)
 : -9.9%	-15.9%
> Cc1ccc(CCNC(=O)c2ccc3c(Cl)c4c(nc3c2)CCCC4)cc1
 : 0.6%	-10.8%
> O=c1[nH]c(CN2CCOCC2)nc2cc(Cl)ccc12
 : -6.4%	i
> CC(C)=C1C(=O)NN(c2ccc(F)c(Cl)c2)C1=O
 : 5.5%	5.2%
> CCOC(=O)c1c(C)oc2ncnc(NCCCN3CCN(c4cc(C)ccc4C)CC3)c12
 : -17.4%	-19.7%
> Cc1nc2nc(Cc3ccccc3)[nH]n2c(=O)c1Cc1ccccc1
 : -14.9%	/
> C=CCNc1nc(N2CCCC2)nc2ccccc12
 : -13.4%	/
> C/C=C/C(=O)N1c2ccccc2C(C)=CC1(C)C
 : -8.9%	-14.2%
> NC(=O)C(OC(=O)CNC(=O)C1CCCCC1)c1ccccc1 (configuration not stated)
 : 11.2%	-13.2%
> COc1cc(-c2nc(S(=O)(=O)c3ccc(C)cc3)c(N(C)C)o2)cc(OC)c1OC
 : -23.9%	-10.1%
> COc1ccccc1CNC(=O)CCC(=O)n1ncc2cc(C)ccc21
 : -7.6%	i
> NNC(=O)Cn1c(-c2nonc2N)nc2ccccc21
 : -6.2%	-16.2%
> COc1ccc(S(=O)(=O)N(C)c2ccc(C(=O)N3CCOCC3)cc2)cc1OC
 : -24.8%	-20.7%
> O=C(NCc1cccnc1)c1sc2ccccc2c1Cl
 : -17.1%	-14.6%
> COc1ccc(C(=O)NCC(=O)OCC(=O)c2ccc3c(c2)NC(=O)CO3)cc1OC
 : -8.2%	-9.1%
> CCOc1ccc(S(=O)(=O)N2CCCCC2)cc1NC(=O)Cc1cc(OC)c(OC)c(OC)c1
 : -24.8%	-5.8%
> C=CCSc1nc(C)c(CC(=C)C)c(=O)[nH]1
 : 5.1%	i
> CCC(C(=O)Nc1cccc(S(=O)(=O)N(C)c2ccccc2)c1)c1ccccc1 (configuration not stated)
 : -20.2%	-13.3%
> Clc1cccc(-c2cc3nc4c(c(N5CCOCC5)n3n2)CCCC4)c1
 : -25.9%	?
> Cc1ccc(-c2cc(C(=O)Oc3ccc(C#N)cc3)no2)cc1
 : -0.8%	-16.2%
> Cc1ccc(NC(=S)NC(C)CCc2ccccc2)cc1C (configuration not stated)
 : -18.4%	?
> COc1cc(OC)cc(C(=O)Nc2cccc(N3CCCC3)c2)c1
 : -16.7%	-12.6%
> COc1ccccc1OCc1ccc(C(=O)c2ccccc2)cc1
 : -1.6%	-15.1%

The list goes on.
Each structure is followed by: Vaccinia Venus	Vaccinia mCherry
> C[C@H](CO)N1C[C@H](C)[C@H](CN(C)S(=O)(=O)c2ccccc2)OCc2ccccc2-c2c(n(C)c3ccccc23)C1=O
 : -10.7%	-5.6%
> Cc1c(Cl)cnc(NC(=O)CSc2nnc3ccccn23)c1Cl
 : -17.4%	/
> CCCn1c(C)cc(C)c(C#N)c1=O
 : -6.2%	-14.7%
> CCc1c(C)sc2nc(SCC(=O)Nc3cc(C)on3)n(CCOC)c(=O)c12
 : 0.1%	/
> Cc1c[nH]c2ccccc12
 : -11.8%	-16.6%
> Cc1ccc(-c2noc(CCC(=O)N(C)c3ccccc3F)n2)cc1
 : -9.0%[7.34 µM]	-13.7%[7.34 µM]
> CCOC(=O)C1=NN(C(=O)COc2ccccc2)C(O)(c2ccc(Cl)cc2)C1 (configuration not stated)
 : -5.0%	-12.4%
> C/C(CC(=O)Nc1cccnc1)=N\NC(=O)C(=O)Nc1cccc(C)c1
 : 8.5%	-8.6%
> COc1cc(/C=C/c2nc(C#N)c(N3CCCCCC3)o2)cc(OC)c1OC
 : -2.7%	-12.8%
> Cc1sc(NC(=O)C2CCCCC2C(=O)O)c(C(N)=O)c1-c1ccc(C(C)(C)C)cc1 (configuration not stated)
 : -4.6%	/
> O=[N+]([O-])c1cccc(Nc2c([N+](=O)[O-])ccc3nonc23)c1
 : -2.6%	-1.4%
> COc1ccc(CN(C)C[C@@H]2OCCCC[C@H](C)Oc3ccc(NC(=O)Nc4ccc(F)cc4)cc3C(=O)N([C@H](C)CO)C[C@H]2C)cc1
 : -18.7%	i
> NC(=O)c1ccc(S(=O)(=O)N2CCSCC2)cc1
 : -8.8%	i
> Cc1nc(C)c(-c2ccc(SCC(=O)Nc3ccccc3)nn2)s1
 : -20.7%	?
> O=c1oc2ccccc2c(N2CCCC2)c1CN1CCCC1
 : -8.5%	-10.8%
> CC1(C)CC[C@]2(C(=O)n3ccnc3)CC[C@]3(C)[C@H](C(=O)C=C4[C@@]5(C)C=C(C#N)C(=O)C(C)(C)[C@@H]5CC[C@]43C)[C@@H]2C1
 : -15.8%	-2.7%
> COc1cc(/C=C/c2nc(-c3ccccc3O)n[nH]2)cc(OC)c1OC
 : ?	i
> COC(C(=O)Nc1ccnn1C1CCN(C(=O)c2ccc(C)cc2)CC1)c1ccccc1 (configuration not stated)
 : 2.8%[7.34 µM]	-12.6%[7.34 µM]
> Cc1ccc(-c2nc(N=Nc3ccc(O)cc3)n[nH]2)cc1
 : ?	?
> CCOc1ccc(NC(=O)CC2C(=O)N(c3cccc(C)c3)C(=O)N2Cc2cccnc2)cc1 (configuration not stated)
 : -9.0%	-11.6%
> CC(C)c1cccc(NC(=O)COC(=O)c2ccccc2OCc2cccc(Br)c2)c1
 : -14.4%	-16.4%
> O=C(NCCc1ccc(Cl)cc1)c1ccc2c(c1)N(Cc1cccc(Cl)c1)C(=O)c1ccccc1S2(=O)=O
 : -7.8%	-18.2%
> O=C(COC(=O)C1CCN(c2ccc(C(F)(F)F)cn2)CC1)c1cccc(Br)c1
 : -0.3%	-19.9%
> CCCCCN(C(=O)CCC(=O)OCC(=O)N(C)C1CCCCC1)c1c(N)n(CCCC)c(=O)[nH]c1=O
 : -10.0%	-7.1%
> COc1cc(C(=O)NCCC(=O)NCc2ccc3c(c2)OCO3)cc(OC)c1OC
 : -7.4%	-12.8%
> CCn1c(C(C)NS(=O)(=O)c2ccc(Cl)cc2)n[nH]c1=S (configuration not stated)
 : -5.4%	-17.8%
> CSc1ccc(CN(C)Cc2nc3cc(C(F)(F)F)ccc3c(=O)[nH]2)cc1
 : -9.1%	-1.7%
> Cc1ccc(Nc2nc(NCc3ccco3)nc3nccnc23)cc1C
 : -10.7%	-14.8%
> COc1ccc(-n2nnnc2C(CCSC)N2CCN(C/C=C/c3ccccc3)CC2)cc1 (configuration not stated)
 : -15.3%	i
> O=C1NC(=S)N(c2cccc(Cl)c2)C12CCCCC2
 : 0.3%	-5.8%

Remaining list, next part:
Each structure is followed by: Vaccinia Venus	Vaccinia mCherry
> CCOc1ccc(Cl)cc1-c1cc(C(=O)NCCc2ccncc2)[nH]n1
 : -18.3%	i
> CC(=O)N1CCN(c2cc(-c3ccccc3)nc3cc(-c4cccc(Cl)c4)nn23)CC1
 : ?	?
> CN(C(=O)c1cccc(NC(=O)c2cccs2)c1)c1ccccc1
 : -19.1%	-3.7%
> CCNC(=O)/C(C#N)=C/c1c(N2CC(C)OC(C)C2)nc2ccccn2c1=O (configuration not stated)
 : -10.1%	-6.4%
> CNC(=O)CSc1nnc(-c2ccco2)n1-c1cccc(C)c1
 : -9.5%	i
> O=C(c1ccc(-c2ccccc2)cc1)N1CCN(Cc2ccccn2)CC1
 : -6.9%	/
> CCOC(=O)Cn1c(=O)oc2cc(S(=O)(=O)N3CCN(C(=O)c4ccco4)CC3)ccc21
 : -20.9%	-0.8%
> CCOC(=O)Cc1c(C)nc2cc(-c3ccc(Cl)cc3)[nH]n2c1=O
 : -0.1%	-14.4%
> CCOC(=O)c1c(CSc2ccc(C)cc2)oc2ccc(O)cc12
 : ?	-16.4%
> O=C(NCCc1ccccc1)C1CCN(S(=O)(=O)c2cccc3nsnc23)CC1
 : -1.8%	-14.1%
> COc1ccc2oc(=O)c(C(=O)N3CCc4ccccc43)cc2c1
 : -4.8%	-7.0%
> O=C(CC1CCCCC1)NCc1ccc(F)cc1
 : -3.0%	i
> Cc1cc(C)cc(NC(=S)N2CCC(N(C)CC3CCCO3)CC2)c1 (configuration not stated)
 : 13.3%	i
> Cc1cccc(OCC(=O)NNC(=O)Cn2c(=O)cnc3ccccc32)c1
 : 1.9%	-3.2%
> Cc1ccc(CN(C)C(=O)CC2C(=O)NCCN2CC2CCCCC2)cc1 (configuration not stated)
 : 13.1%	-5.9%
> CCCOc1ccc(CNC(=O)Cn2ncn3c(cc4sc(CC)cc43)c2=O)cc1
 : -7.1%	-11.9%
> C=CCn1c(NCc2cc(C)ccc2O)nc2ccccc21
 : -18.2%	i
> O=C(O)CC(C(=O)Nc1ccc(Cl)cc1)N1CCCCCC1 (configuration not stated)
 : -10.1%	i
> O=C(CSCC(=O)NC1CCCC1)Nc1ccccc1
 : -0.4%	-14.8%
> Cc1cccc2sc(NC(=O)Cn3c(C)csc3=O)nc12
 : -19.1%	-21.2%
> COC(=O)c1ccc(NC(=O)c2cccc3c2C(=O)N(C2CCCCC2)C3)cc1
 : -6.1%	-7.8%
> CC1(C)CC(N2CCOCC2)=CC(=S)N1
 : -1.0%	-10.4%
> O=C(C(=O)N1CCOCC1)c1cn(Cc2ccc(F)cc2)c2ccccc12
 : 5.3%[7.34 µM]	2.3%[7.34 µM]
> Cc1ccc(C)c(N2CCN(S(=O)(=O)c3ccc(F)c(C(=O)Nc4ccc(Cl)cc4Cl)c3)CC2)c1
 : -12.0%	-16.3%
> COc1ccc(NC(=O)C(=O)c2cc(C)n(-c3ccc(C)cc3)c2C)cc1Cl
 : -28.9%	-29.6%
> C#CCOC(=O)c1ccc(-n2cncn2)nc1
 : -6.9%	-11.6%
> COC(=O)C1=C(c2ccc(OC)c(OC)c2)C[C@@H]2CC[C@H]1N2C(=O)NCCCOC(C)C
 : -10.4%	i
> O=C(CCSc1ccc(Cl)cc1)N1CCN(c2ccc(O)cc2)CC1
 : -29.0%	?
> C[C@H]1CN([C@@H](C)CO)C(=O)CCCn2cc(nn2)CO[C@@H]1CN(C)C(=O)Nc1cccc(F)c1
 : -11.9%	-9.5%
> C=CCNc1nnnc2c1sc1nc(N3CCOCC3)c3c(c12)CCCC3
 : 0.7%	i

Record cards, from the list above. Values in the order: Vaccinia Venus | Vaccinia mCherry
`CNC(=O)CSc1nnc(-c2ccco2)n1-c1cccc(C)c1` as listed: -9.5% | i
`O=C(CC1CCCCC1)NCc1ccc(F)cc1` as listed: -3.0% | i

The list goes on:
Each structure is followed by: Vaccinia Venus	Vaccinia mCherry
> C/C(=N/Nc1ccc(F)cc1)c1ccc(Cl)s1
 : -2.2%	-10.7%
> C=CCOc1ccc(C2NC(=O)c3ccccc3O2)cc1OCC (configuration not stated)
 : -5.3%	-3.1%
> CCOC(=O)C1CCCN(C(=O)c2ccc3c(c2)sc2nc(-c4cccc(OC)c4)cn23)C1 (configuration not stated)
 : -7.5%	-3.2%
> CCN1CCN(C(CNS(=O)(=O)c2ccccc2)c2cccnc2)CC1 (configuration not stated)
 : -7.5%	-13.3%
> COc1ccc(OC)c(NC(=O)Cc2c(C(=O)O)[nH]c3ccc(Cl)cc23)c1
 : 3.6%	1.2%
> C#CCOCCOCCOCCNc1nc(N2CCN(C(=O)[C@H](CCCCN)n3cc([C@@H](N)CC(C)C)nn3)CC2)nc(N2CCN(C(=O)[C@H](CCCCN)n3cc([C@@H](N)CC(C)C)nn3)CC2)n1
 : -7.4%	i
> O=C1c2ccccc2C(=O)N1Cc1ccccc1F
 : -4.1%	23.7%
> COc1ccc(C(=O)Cn2c(C)nc([N+](=O)[O-])c2Br)cc1
 : 7.94µM*	3.55µM*
> CCOC(=O)C1(Cc2cccc(Cl)c2)CCCN(C(=O)c2cccnc2)C1 (configuration not stated)
 : -9.4%	-3.9%
> Clc1ccc(/C=N/Nc2ncnc3nc[nH]c23)cc1
 : -13.3%	i
> COC(C(=O)Nc1ccnn1C1CCN(Cc2ccc(CO)o2)CC1)c1ccccc1 (configuration not stated)
 : -5.5%	i
> COc1ccc(NC(=O)N(C)C[C@H]2Oc3ccc(NS(=O)(=O)c4c(C)noc4C)cc3C(=O)N([C@H](C)CO)C[C@@H]2C)cc1
 : -2.8%	-24.5%
> Clc1ccc(CNc2ccc(CNc3ncn[nH]3)cc2)cc1
 : -23.3%	-5.2%
> O=C(O)c1nc(N2CCCCC2)ncc1Cl
 : -20.4%	-9.5%
> O=C(NCc1ccccc1)c1ccc(CS(=O)(=O)c2ccc(Br)cc2)o1
 : -15.6%	i
> CC12CCC(=O)N1C(C(=O)Nc1cccc(S(=O)(=O)N3CCCCCC3)c1)CS2 (configuration not stated)
 : -14.9%	i

In the list so far, 2 contain a nitro group on carbon.
Each structure is followed by: Vaccinia Venus	Vaccinia mCherry
> O=[N+]([O-])c1cccc(Nc2c([N+](=O)[O-])ccc3nonc23)c1
 : -2.6%	-1.4%
> COc1ccc(C(=O)Cn2c(C)nc([N+](=O)[O-])c2Br)cc1
 : 7.94µM*	3.55µM*

High-throughput results (PubChem BioAssay)
